Assay outcomes: PubChem BioAssay, National Center for Advancing Translational Sciences (NCATS)
Rango dissoc inh: qHTS Assay for Inhibitors of RanGTP induced Rango (Ran-regulated importin-beta cargo) - Importin beta complex dissociation; 340,000 compounds, 0.071% hits; Potency, µM (series often up to 46.1 µM), without a hit: at the top dose activity change, negative = inhibition; Snurportin-1 (Homo sapiens) + GTP-binding nuclear protein Ran (Homo sapiens) + Importin …; Biochemical FRET Rango-importin beta, RanGTP-induced dissociation; active means falling FRET ratio curve, often poorly fitted, with flat reads before Ran was added; inconclusive means other falling curves, or compound fluorescence or quenching; inactive means flat or rising ratio curve;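 further: potency means the concentration at half of the fitted maximal effect; % of control where 0% means no effect; nearly all actives have a fitted effect of over 45% in size; -100% = wells without RanGTP and RCC1; the record marks most hits as doubtful in a second field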
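Rango FRET biosensor (snurportin-1 IBB flanked by N-terminal EYFP and C-terminal CFP10) at 0.1 uM, with 0.25 uM importin beta in PBS, 1mM DTT, 0.02% Tween-20, 0.1% BSA. 0.6 uM Ran, 2mM GTP and 0.2 uM RCC1 were then added for 45 min at room temperature. Inhibition read as loss of FRET rise.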
GLA inh pH 4.5: qHTS Assay for Inhibitors of Human alpha-Galactosidase at pH 4.5 | 230,000 tested, under 10 active | purified enzyme, 4-MU-alpha-Gal fluorescence, pH 4.5 | activity change, negative = inhibition, % at 105 µM | Alpha-galactosidase A (Homo sapiens), P06280; inconclusive = small, poorly fitted or top-dose-only inhibition, or a rising curve; inactive = flat fitted curve, though single readings scatter; no compound was filed as active;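 further: 0% = full activity with enzyme and -100% = basal without enzyme; dose as in the result columns while the protocol names 77 µM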
Target sequence (P06280 whole entry, looked up): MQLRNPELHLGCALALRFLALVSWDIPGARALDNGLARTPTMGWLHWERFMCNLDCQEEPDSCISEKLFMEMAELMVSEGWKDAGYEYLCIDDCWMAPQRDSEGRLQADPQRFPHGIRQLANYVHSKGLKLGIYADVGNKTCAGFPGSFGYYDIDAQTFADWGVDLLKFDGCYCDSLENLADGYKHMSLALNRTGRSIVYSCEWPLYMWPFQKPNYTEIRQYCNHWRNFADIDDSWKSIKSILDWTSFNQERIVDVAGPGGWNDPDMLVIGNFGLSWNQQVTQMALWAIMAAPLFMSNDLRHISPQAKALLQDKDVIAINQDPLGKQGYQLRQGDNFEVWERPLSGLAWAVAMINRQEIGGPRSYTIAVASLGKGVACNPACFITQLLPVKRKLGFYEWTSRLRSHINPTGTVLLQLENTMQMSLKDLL
miR-21 FLuc: qHTS Assay for Modulators of miRNAs and/orActivators of miR-21; 340,000 tested, under 10 active; Potency, µM (highest dose often 38.3 µM), for the others: top-dose reporter change, positive = more light; HeLa miR-21 FLuc reporter, luciferase, 48 h; active = well fitted rising curve with a large enough effect; inconclusive = small, poorly fitted or top-dose-only effect; inactive = no such curve, though single readings can be large or run the other way;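 further: % of control where 0% means no effect; miR-21 action dims this reporter so a rising signal means less miR-21 action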
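Compounds were titrated across several concentrations (up to approximately 40 uM) and incubated 48 hours with HeLa miR-21-FLuc reporter cells (miR-21 target sequence downstream of FLuc, endogenous miR-21). Readout was firefly luciferase luminescence after lytic detection reagent.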
Rango-impB inh: qHTS Assay for Inhibitors of Rango (Ran-regulated importin-beta cargo) - Importin beta complex formation; Importin subunit beta-1 (Homo sapiens), Q14974; Rango CFP/YFP FRET sensor + importin beta, 45 min; Potency, µM (highest dose often 92.2 µM), without a hit: at the top dose inhibition of complex formation; 340,000 compounds, 0.031% hits; active = rising FRET ratio curve, often small or poorly fitted; inconclusive = mostly compound fluorescence or quenching in the first reads; inactive = flat curves in all reads;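 further: potency means the concentration at half of the fitted maximal effect; 0% = DMSO wells and 100% = buffer wells lacking importin beta; nearly all actives have a fitted effect of over 15% in size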
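FRET biosensor Rango (snurportin 1 IBB between N-terminal EYFP and C-terminal Cerulean), 50 nM in PBS/1 mM DTT/0.02% Tween-20/0.1% BSA, preincubated 5 min RT with compound; 0.125 microM importin beta added, 45 min RT, CFP/YFP FRET ratio read.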
Numbers without * were called inactive; ? = inconclusive; · = not tested or not shown; & = joins results of further samples; [ ] = remark or other dose. Not all compounds are listed (hit frequency here may not be typical).

SMILES | Rango dissoc inh | GLA inh pH 4.5 | miR-21 FLuc | Rango-impB inh
O=C(c1cc(COc2ccc3ncccc3c2)on1)N1CCC(O)CC1 | 14% | -1 | 15% | 4.1%
O=C(O)c1cccc(S(=O)(=O)NCCC(c2ccccc2)c2ccccc2)c1 | -9% | 6 | -4% | -5.1%
Cc1ccsc1C(=CCCN1CCC[C@@H](C(=O)O)C1)c1sccc1C | 25% | · | · | -0.2%
CCN(C(=O)CN1CCOCC1)C1(C)C(=O)c2ccccc2C1=O | 26% | -2 | -12% | -1.0%
CCc1nnc(NC(=O)CSc2ccc(-c3nc4ccc(C)cc4[nH]3)cn2)s1 | -1% | 2 | -53% | 0.1%
COc1ccc(C(C)=O)cc1CN1C(=O)NC2(CCCCCCC2)C1=O | 10% | -9[21.1 µM] | -2% | 2.9%
CCOP(=O)(OCC)c1nc(-c2ccccc2Cl)oc1N1CCOCC1 | -1% | -3 | -2% | 4.8%
CCN(CC)CCOC(=O)C12CC3CC(CC(C3)C1)C2 | -5% | 2 | -11% | 4.8%
Cc1nc(SC(C)C(=O)NCC2CCCO2)c2cc(-c3ccccc3)sc2n1 (configuration not stated) | -6% | · | · | -0.6%
CN(C)/C=C/C(=O)c1ccc(Oc2ncccn2)cc1 | -20% | -7 | -11% | 6.0%

(next part)
SMILES | Rango dissoc inh | GLA inh pH 4.5 | miR-21 FLuc | Rango-impB inh
N=C1C(c2nc(-c3ccc(Cl)cc3)cs2)=C(O)CN1CCCN1CCOCC1 | 1% | -9 | -12% | 0.2%
Cc1[nH]c2ccccc2c1C(=O)NS(=O)(=O)Nc1ccccc1 | -19% | -11 | -1% | -1.1%
CCN(c1ccccc1)S(=O)(=O)c1ccc(Oc2ccc(C(C)=O)cc2OC)nc1 | 0% | · | · | -5.6%
Clc1ccc(OCCSc2ncccn2)c2ccccc12 | -12% | 1 | -43% | 1.4%
CC(NC(=O)CNC(=O)Cc1cccc2ccccc12)c1ccc(S(N)(=O)=O)cc1 (configuration not stated) | -12% | · | -1% | 1.7%
CN(CC(=O)NCc1ccccc1Cl)CC(=O)Nc1cccc(F)c1 | 18% | -4 | 0% | -2.9%
CCN(CC(=O)NC1CCS(=O)(=O)C1)C(C)C(=O)Nc1ccc(F)cc1 (configuration not stated) | -1% | · | · | ?
CCOc1c(Cl)cc(C2NC(=O)NC(C)=C2C(=O)NCc2ccccc2)cc1OC (configuration not stated) | 23% | 7 | -2% | -1.5%
O=C(COC(=O)C1CCN(S(=O)(=O)c2ccccc2)CC1)NC(=O)c1ccc(OC(F)F)cc1 | -13% | -7 | -6% | -1.2%
Cc1cc(NC(=O)CN2C(=O)NC(C)(CC(C)C)C2=O)no1 (configuration not stated) | 2% | · | · | -1.0%

(further entries)
SMILES | Rango dissoc inh | GLA inh pH 4.5 | miR-21 FLuc | Rango-impB inh
COc1cccc(NC(=O)CNC(=O)c2ccc(C)o2)c1 | 11% | · | -4% | 0.0%
CCC(C)Sc1ccc([C@@H]2[C@@H]3C(=O)N(C)C(=O)[C@@H]3[C@]3(C(=O)OC)CCCCN23)cc1OC (some centres not stated) | 4% | · | · | -0.1%
Cc1ccc(-c2nnn(CCC(=O)Nc3ccc4c(c3)OCO4)n2)cc1 | -11% | 11 | -7% | -0.3%
CN1C(=O)S/C(=C\c2ccc(-n3cncn3)cc2)C1=O | -15% | -2 | -6% | 2.1%
Cc1ccccc1C(=O)Nc1ccc(Cl)cn1 | 30% | 10 | -28% | 0.5%
COc1ccccc1CNC(=O)c1cccc(NC(=O)c2ccccc2)c1 | 14% | -8 | 2% | -0.8%
Cc1ncsc1C(=O)Nc1cccc(C(F)(F)F)c1 | 0% | · | -11% | 2.1%
C=CCN1C(=O)[C@H]2CCC=C[C@H]2[C@@H]1c1cccc(C)c1 | 0% | · | · | -0.3%
CC1=N/C(=C/c2ccco2)C(=O)O1 | -13% | 1 | 1% | -1.1%
O=C(O)Cc1ccc(-n2cccc2)cc1 | 26% | 5 | -2% | 5.2%

Continuation:
SMILES | Rango dissoc inh | GLA inh pH 4.5 | miR-21 FLuc | Rango-impB inh
COc1ccc(OC)c2c(C)cc(N3CCN(C(=O)c4ccc(C)cc4)CC3)nc12 | 8% | -1 | -2% | ?
C=CCN1C(=O)/C(=C2/Sc3ccc(OC)cc3N2C)SC1=Nc1ccc(OC)cc1 | · | 1 | -3% | ·
Cc1cc(C)c(NC(=O)CN(C)C(=O)C2CC(=O)N(c3cccc4ccccc34)C2)c(C)c1 (configuration not stated) | 2% | · | · | -0.3%
O=C(O)COc1ccc(/C=C2/SC(=S)N(Cc3ccccc3)C2=O)cc1 | -17% | · | -5% | -1.4%
O=C(c1c[nH]c2ccccc12)C(Cl)c1ccccc1 (configuration not stated) | 3% | · | 23% | -0.5%
COc1ccc(-c2nn(-c3ccccc3)cc2C(=O)N2c3ccc(C)cc3C3CN(C)CCC32)cc1 (configuration not stated) | 15% | -12 | 0% | 1.4%
O=C(O)c1cccc(NC(=S)NC(=O)C(c2ccccc2)c2ccccc2)c1 | 6% | 2 | -9% | 0.1%
Cn1c(=O)c2c(SCC(=O)NCc3ccco3)nc(-c3ccccc3Cl)nc2n(C)c1=O | 13% | · | 6%&7% | -1.5%
CC(C)C[C@@H](CNCC(=O)[C@H](C)NC(=O)c1[nH]cnc1C(=O)N[C@@H](C)CN)NC(=O)c1nc[nH]c1C(=O)N[C@@H](CO)C(=O)O | -16% | · | · | 0.0%
COc1ccc(O)c(-c2cc(-c3ccccc3[N+](=O)[O-])[nH]n2)c1 | 12% | -1 | -47% | -6.7%

Further structures.
SMILES | Rango dissoc inh | GLA inh pH 4.5 | miR-21 FLuc | Rango-impB inh
CCn1c(SCC(=O)NCc2ccco2)nnc1-c1cccs1 | -1% | -9 | -8% | 0.8%
CC(C)(C)[Si](OCC[C@@H]1C[C@@]1(C)[C@@H](NP(=O)(c1ccccc1)c1ccccc1)c1ccccc1)(c1ccccc1)c1ccccc1 | · | 1&-1 | -8% | ·
Cn1c(=O)c2c(SCC(=O)N3CCCC3)nc(-c3ccccc3)nc2n(C)c1=O | -2% | · | 3% | -2.2%
COc1ccc(-c2nnc(SCc3ccc(C(=O)O)cc3)n2C)cc1OC | -2% | · | -3% | -3.5%
COc1ccc(NC(=O)CC23CC4CC(CC(C4)C2)C3)cn1 | 0% | 3 | -20% | 2.7%
COc1cc(NC(=O)COC(=O)CCc2cc(OC)c(OC)c(OC)c2)cc(OC)c1 | 8% | 0 | -1% | -2.4%
COc1ccc(SCc2noc(C(=O)NC(C)C)c2C(=O)O)cc1 | -9% | 14 | 1% | ?
CC(=O)Oc1ccc(C(C)=O)c2c1OCCO2 | 1% | 13 | -5% | 0.0%
Cc1ccc(C)c(NC(=O)CSc2cccc3cccnc23)c1 | 4% | · | 0% | 6.7%
CSc1nc2sccc2c(=O)[nH]1 | -5% | -9 | -7% | -0.5%

Going on with the list.
SMILES | Rango dissoc inh | GLA inh pH 4.5 | miR-21 FLuc | Rango-impB inh
CCO[C@H]1OC(C(=O)N2CCN(Cc3ccc4c(c3)OCO4)CC2)=C[C@@H](C2CCCCC2)[C@@H]1CCCO | 7% | -6 | 10% | 0.1%
O=C1N[C@@H](Cc2cn(S(=O)(=O)c3ccc([N+](=O)[O-])cc3)c3ccccc23)C(=O)N[C@H]1Cc1ccccc1 | -3% | · | · | 0.6%
Cc1cc(C)n2nc(SCC(=O)Nc3ccc(S(=O)(=O)N(C)C)cc3)nc2n1 | 1% | · | · | 0.4%
COc1cc(OC)cc(-c2nc(-c3cc4cc(C)ccc4nc3OC)no2)c1 | 4% | 3 | -2% | 1.1%
Cc1cc(C)c2c(N=NN(C)C)[nH]nc2n1 | -1% | 1 | -27% | 0.1%
CCOc1cc2[nH]c(=O)n(Cc3ccc(C(=O)NCCOC)cc3)c(=O)c2cc1OCC | 10% | 6 | -4% | 7.6%
COC(=O)c1cc(C(=O)NCCCN2CCOCC2)cc([N+](=O)[O-])c1 | 5% | 6 | 3% | 0.6%
C=CCNC(=O)c1ccc(-c2nc(-c3ccc(Cl)cc3Cl)cs2)cc1 | 3% | -9 | -1% | -0.9%
NS(=O)(=O)c1ccc(CCNCc2ccccc2OCc2ccc(Cl)cc2)cc1 | 12% | · | 12% | -2.1%
CCCS(=O)(=O)c1nc(S(=O)(=O)c2ccc(C)cc2)c(N2CCN(C)CC2)s1 | -10% | · | 11% | 0.3%

Reformatted: three of the compounds above
COC(=O)c1cc(C(=O)NCCCN2CCOCC2)cc([N+](=O)[O-])c1
  Rango dissoc inh = 5%
  GLA inh pH 4.5 = 6
  miR-21 FLuc = 3%
  Rango-impB inh = 0.6%
C=CCNC(=O)c1ccc(-c2nc(-c3ccc(Cl)cc3Cl)cs2)cc1
  Rango dissoc inh = 3%
  GLA inh pH 4.5 = -9
  miR-21 FLuc = -1%
  Rango-impB inh = -0.9%
NS(=O)(=O)c1ccc(CCNCc2ccccc2OCc2ccc(Cl)cc2)cc1
  Rango dissoc inh = 12%
  GLA inh pH 4.5 = ·
  miR-21 FLuc = 12%
  Rango-impB inh = -2.1%

The list continues:
SMILES | Rango dissoc inh | GLA inh pH 4.5 | miR-21 FLuc | Rango-impB inh
N#C/C(=C(/O)CSc1ncn[nH]1)c1nc2ccccc2[nH]1 | ? | ? | 7% | ?
COc1ccccc1/C=N/NC(=O)c1ccc(CN2C(=O)c3cccc4cccc2c34)cc1 | -29% | 3 | -9% | ?
COc1ccc(/C=C(\NC(=O)c2cccs2)C(=O)NCc2ccco2)cc1OC | 0% | 0 | 5% | 5.8%
Cc1ccc(S(=O)(=O)NCC(=O)OCN2C(=O)c3ccccc3C2=O)cc1 | -2% | 0 | -4% | -1.0%
Cc1cc(Cl)ccc1OCC(=O)NNC(=O)CCOc1ccccc1 | 0% | · | · | 0.5%
O=C(CSc1nc2ccccc2[nH]1)NC1CCCC1 | 1% | -8 | -14% | -0.6%
C=CCC[C@@H](Cc1ccc(F)cc1)C(=O)OC[C@@H](Cc1c[nH]c2ccccc12)NC(=O)[C@@H](CC=C)CC(=O)NCCO | 1% | · | · | -1.2%
CCN1CCN(c2nc3ccccc3nc2C(C#N)S(=O)(=O)c2ccc(C)cc2)CC1 (configuration not stated) | ? | 1 | 16% | ?
CCC(=O)N(CCc1ccccc1)Cc1cc2cc(OC)ccc2[nH]c1=O | -4% | 13 | -1% | -0.4%
CCn1c(=O)cc(OCC(=O)Nc2ccc(C)cn2)c2ccccc21 | 7% | 0 | 0% | -1.3%
Cc1ccc2nc(-c3ccc(SCC(=O)N4CCc5ccccc54)nc3)[nH]c2c1 | -3% | -4 | -5% | 2.8%

Gathered by group, the entries above containing a COOH group.
SMILES | Rango dissoc inh | GLA inh pH 4.5 | miR-21 FLuc | Rango-impB inh
O=C(O)c1cccc(S(=O)(=O)NCCC(c2ccccc2)c2ccccc2)c1 | -9% | 6 | -4% | -5.1%
Cc1ccsc1C(=CCCN1CCC[C@@H](C(=O)O)C1)c1sccc1C | 25% | · | · | -0.2%
O=C(O)Cc1ccc(-n2cccc2)cc1 | 26% | 5 | -2% | 5.2%
O=C(O)COc1ccc(/C=C2/SC(=S)N(Cc3ccccc3)C2=O)cc1 | -17% | · | -5% | -1.4%
O=C(O)c1cccc(NC(=S)NC(=O)C(c2ccccc2)c2ccccc2)c1 | 6% | 2 | -9% | 0.1%
CC(C)C[C@@H](CNCC(=O)[C@H](C)NC(=O)c1[nH]cnc1C(=O)N[C@@H](C)CN)NC(=O)c1nc[nH]c1C(=O)N[C@@H](CO)C(=O)O | -16% | · | · | 0.0%
COc1ccc(-c2nnc(SCc3ccc(C(=O)O)cc3)n2C)cc1OC | -2% | · | -3% | -3.5%
COc1ccc(SCc2noc(C(=O)NC(C)C)c2C(=O)O)cc1 | -9% | 14 | 1% | ?
